Rango release inh: prevents RanGTP from dissociating the Rango-importin beta complex; O95149+P62826; Biochemical FRET Rango-importin beta, RanGTP-induced dissociation; Potency, µM (highest dose often 46.1 µM), inactives show at the highest dose activity change, negative = inhibition; 0.071% of 340,000 active; active means falling FRET ratio curve, often poorly fitted, with flat reads before Ran was added; inconclusive means other falling curves, or compound fluorescence or quenching; inactive means flat or rising ratio curve;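 also: potency is read from the fitted curve at half-maximal effect; % of control where 0% means no effect; nearly all actives have a fitted effect of over 45% in size; -100% = wells without RanGTP and RCC1; the record marks most hits as doubtful in a second field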
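FRET read at 45 min, room temperature: inhibitors block the CFP/YFP signal rise when RanGTP (0.6 uM Ran, 2 mM GTP, 0.2 uM RCC1) frees Rango (0.1 uM) from importin beta (0.25 uM). Pre-read after 5 min compound exposure flags interference.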
Rango complex inh: Rango-importin beta binding inhibition; 0.031% of 340,000 active; Rango CFP/YFP FRET sensor + importin beta, 45 min; Potency, µM (highest dose often 92.2 µM), without a hit: top-dose inhibition of complex formation; Q14974; AID 540263; active = rising FRET ratio curve, often small or poorly fitted; inconclusive = mostly compound fluorescence or quenching in the first reads; inactive = flat curves in all reads;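 also: potency is read from the fitted curve at half-maximal effect; 0% = DMSO wells and 100% = buffer wells lacking importin beta; nearly all actives have a fitted effect of over 15% in size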
Target sequence (Q14974 whole entry, looked up): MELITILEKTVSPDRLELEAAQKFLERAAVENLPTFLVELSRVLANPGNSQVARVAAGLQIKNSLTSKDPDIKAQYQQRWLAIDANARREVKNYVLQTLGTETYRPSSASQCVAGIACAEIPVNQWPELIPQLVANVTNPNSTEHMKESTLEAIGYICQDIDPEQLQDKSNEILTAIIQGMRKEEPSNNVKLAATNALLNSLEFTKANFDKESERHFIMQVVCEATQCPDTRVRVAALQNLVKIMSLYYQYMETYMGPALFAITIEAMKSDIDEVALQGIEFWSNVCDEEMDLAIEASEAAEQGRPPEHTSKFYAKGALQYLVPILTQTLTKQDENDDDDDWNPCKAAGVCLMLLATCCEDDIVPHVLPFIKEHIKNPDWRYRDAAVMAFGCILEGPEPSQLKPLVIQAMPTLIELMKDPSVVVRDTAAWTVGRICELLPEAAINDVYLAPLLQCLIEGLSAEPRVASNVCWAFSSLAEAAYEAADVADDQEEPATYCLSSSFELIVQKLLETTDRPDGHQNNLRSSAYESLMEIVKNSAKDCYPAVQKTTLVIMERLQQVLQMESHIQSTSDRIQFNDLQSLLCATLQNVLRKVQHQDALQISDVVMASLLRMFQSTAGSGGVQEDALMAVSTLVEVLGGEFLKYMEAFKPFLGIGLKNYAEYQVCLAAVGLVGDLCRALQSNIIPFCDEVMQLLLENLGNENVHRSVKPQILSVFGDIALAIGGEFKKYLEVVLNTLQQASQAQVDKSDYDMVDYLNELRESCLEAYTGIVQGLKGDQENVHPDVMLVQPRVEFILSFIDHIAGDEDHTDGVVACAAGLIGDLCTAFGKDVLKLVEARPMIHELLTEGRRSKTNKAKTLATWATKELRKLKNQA
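FRET biosensor (snurportin 1 IBB flanked by EYFP and cerulean), 50 nM, with compound 5 min, then 0.125 microM importin beta in PBS, 1 mM DTT, 0.02% Tween-20, 0.1% BSA. CFP/YFP ratio read after 45 min at room temperature; pre-read flags interference.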
miR-21 FLuc: miR-21 reporter, rising signal. HeLa miR-21 FLuc reporter, luciferase, 48 h. Potency, µM (titrated, usually from 38.3 µM), without a hit: top-dose reporter change, positive = more light. 340,000 tested, under 10 active. AID 2288; active = well fitted rising curve with a large enough effect; inconclusive = small, poorly fitted or top-dose-only effect; inactive = no such curve, though single readings can be large or run the other way;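 also: % of control where 0% means no effect; miR-21 action dims this reporter so a rising signal means less miR-21 action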
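HeLa miR-21-FLuc reporter line, endogenous miR-21; 2000 cells/well in DMEM/10% FBS; compound titration up to ~40uM final, 48 h, 37 degree Celsius; luciferase detection reagent, 15 min lysis, CCD luminescence.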
GLA inh pH 4.5: inhibitors of human alpha-galactosidase A at pH 4.5; P06280; purified enzyme, 4-MU-alpha-Gal fluorescence, pH 4.5; activity change, negative = inhibition, % at 105 µM; 230,000 tested, under 10 active; inconclusive = small, poorly fitted or top-dose-only inhibition, or a rising curve; inactive = flat fitted curve, though single readings scatter; no compound was filed as active;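 also: 0% = full activity with enzyme and -100% = basal without enzyme; dose as in the result columns while the protocol names 77 µM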
Starred values were filed as active, the others as inactive; ? = inconclusive; · = not tested or not shown.

nr | miR-21 FLuc | GLA inh pH 4.5 | Rango complex inh | Rango release inh | SMILES
1 | -1% | 6 | -6.0% | -12% | Cc1nnc(SCC(=O)c2ccc(S(=O)(=O)N3CCOCC3)cc2)n1-c1ccccc1
2 | -9% | -1 | -3.2% | -15% | COc1ccc(-c2nnn(CC(=O)N(CC(=O)NCCC(C)C)c3ccccc3)n2)cc1OC
3 | 0% | · | -5.9% | 28% | COc1ccc(/C=C/CN2CCC(n3nccc3NC(=O)C3CCCC3)CC2)cc1
4 | -3% | 9 | -3.8% | 27% | O=C(O)C1CC(=O)N(C2CCCCCC2)C1 (centres undefined)
5 | -23% | -9 | -0.7% | -4% | Cc1ccc(C(=O)Nc2nc(C)c(C(=O)Nc3ccc4c(c3)CCC4)s2)cc1
6 | -7% | -5 | 1.9% | 0% | COc1cccc(NC(=O)COc2ccc(S(=O)(=O)NC(C)C)cc2)c1
7 | · | · | 2.8% | 3% | O=C1OC[C@@H]2CCCN2C(=O)[C@H](CC(=O)N(CCO)Cc2ccccc2)C/C=C\CC[C@@H]1Cc1ccc(F)cc1
8 | 6% | · | 0.8% | -1% | CCOc1ccc(N2CC(C(=O)Nc3ccccc3N3CCCC3)CC2=O)cc1 (centres undefined)
9 | 0% | -2 | 3.0% | -4% | COC(=O)C1C(c2ccccc2)C=CC(c2ccccc2)C1C(=O)O (centres undefined)
10 | · | · | 1.3% | 9% | COc1cc(C(C)=O)ccc1OCC(=O)NCCCn1nc(C)cc1C

Only Rango release inh and Rango complex inh, for two of the compounds above:
| No. | structure | Rango release inh | Rango complex inh |
| --- | --- | --- | --- |
| 2 | COc1ccc(-c2nnn(CC(=O)N(CC(=O)NCCC(C)C)c3ccccc3)n2)cc1OC | -15% | -3.2% |
| 4 | O=C(O)C1CC(=O)N(C2CCCCCC2)C1 (centres undefined) | 27% | -3.8% |

(listing goes on)
nr | miR-21 FLuc | GLA inh pH 4.5 | Rango complex inh | Rango release inh | SMILES
11 | 19% | -15 | -0.2% | -9% | Cc1ccccc1NC(=O)CCC(=O)N/N=C/c1cc([N+](=O)[O-])ccc1O
12 | -11% | -8 | 5.3% | 0% | COc1cc(/C=N/N2CCN(C3c4ccccc4-c4ccccc43)CC2)cc(OC)c1O
13 | 9% | 0 | ? | -20% | Cc1nnc(C)c2c(C)n(C(c3ccccc3)c3ccccc3)c(C)c12
14 | -36% | 1 | -0.1% | 4% | Cc1ccc(NC(=O)C2CCCO2)cc1[N+](=O)[O-] (centres undefined)
15 | 18% | -7 | -0.2% | 0% | COc1ccc(C(=O)N2CC3(CC(c4cccc(NC(=O)COc5ccc(Cl)cc5)c4)=NO3)C[C@@H]2C(N)=O)cc1 (some centres undefined)
16 | -3% | -2 | 3.1% | -4% | COc1cccc2cc(C(=O)Nc3cccnc3N3CCOCC3)c(=O)oc12
17 | -12% | · | 5.4% | -7% | CC(=O)Nc1ccc(NC(=O)CSc2ccc(-c3sc(C)nc3C)nn2)cc1
18 | · | · | 1.1% | 12% | O=S(=O)(/N=C(/Nc1nccs1)c1ccc(F)cc1)c1ccccc1
19 | -1% | · | ? | ? | COc1ccc(C)cc1Nc1n[n+](C)c(-c2c3ccccc3cc3ccccc23)s1
20 | -29% | · | 0.0% | 2% | Cc1ccc2oc(C(=O)N(C)CCC(O)c3ccccc3)c(C)c2c1 (centres undefined)
21 | 0% | · | 0.6% | -7% | Cc1ccc(C(=O)N2CCCC2)cc1S(=O)(=O)N1CCOCC1
22 | -1% | -10 | -3.9% | -2% | O=C(c1ccc2ccccc2c1)N1CCN(c2ccc(C(F)(F)F)cn2)CC1
23 | -8% | 7 | 4.2% | 19% | COc1ccc(OCC(=O)Nc2ccc(N3CCCCC3)cc2)cc1
24 | · | · | -1.7% | -3% | CCOc1cc(N2CCOCC2)c(OCC)cc1NC(=O)COC(=O)CCOc1ccc(C(C)(C)C)cc1
25 | -2% | 6 | 0.8% | 0% | COc1ccc(NC(=O)CN(C)CC(=O)Nc2ccccc2SC)cc1
26 | 3% | -1 | ? | ? | O=C(O)c1cc2cc(Cl)cc(Cl)c2oc1=O
27 | -3% | -13 | -0.4% | 2% | NC(=O)CNC(=O)c1ccc(Cl)cc1
28 | · | · | 4.6% | -2% | O=C(CSc1n[nH]c(-c2cccs2)n1)N1CCOCC1
29 | 14% | · | -0.8% | 0% | COc1ccc(NC(=O)CSc2ccc(-c3sc(C)nc3C)nn2)cc1OC
30 | -3% | -5 | 0.3% | -21% | Cc1sc(NC(=O)/C=C/c2ccco2)c(C(=O)OC(C)C)c1C

Reformatted field by field: two of the compounds above.
11	Cc1ccccc1NC(=O)CCC(=O)N/N=C/c1cc([N+](=O)[O-])ccc1O
  miR-21 FLuc = 19%
  GLA inh pH 4.5 = -15
  Rango complex inh = -0.2%
  Rango release inh = -9%
8	CCOc1ccc(N2CC(C(=O)Nc3ccccc3N3CCCC3)CC2=O)cc1 (centres undefined)
  miR-21 FLuc = 6%
  GLA inh pH 4.5 = ·
  Rango complex inh = 0.8%
  Rango release inh = -1%

Next structures
nr | miR-21 FLuc | GLA inh pH 4.5 | Rango complex inh | Rango release inh | SMILES
31 | 2% | · | 6.1% | ? | CC(C)[C@H](NC(=O)N1CC(=O)Nc2ccccc21)C(=O)N1CCC[C@H]1C(=O)O
32 | · | · | -3.9% | -3% | Cc1ccccc1OCCC(=O)OCC(=O)NC1CCS(=O)(=O)C1 (centres undefined)
33 | 4% | 2 | 1.5% | 10% | O=C(NNC1CC(=O)N(c2ccc(Cl)cc2)C1=O)c1ccco1 (centres undefined)
34 | 0% | 5 | 3.9% | 13% | CCC(C)N1CC(C(=O)O)CC1=O (centres undefined)
35 | -1% | 1 | 0.3% | -15% | COc1ccccc1N1CCN(C(CNS(=O)(=O)c2cc(F)ccc2F)c2cccnc2)CC1 (centres undefined)
36 | -48% | -3 | 0.1% | 8% | C=CCSc1nnc2c(n1)OC(c1ccco1)Nc1ccccc1-2 (centres undefined)
37 | 1% | 4 | -0.7% | -4% | CCCCN(C)Cc1c(C)[nH]c2ccc(OCC)cc2c1=O
38 | -4% | · | ? | 2% | O=C(O)c1cccc2c1/C(=N/Nc1ccc([N+](=O)[O-])cc1[N+](=O)[O-])c1ccccc1-2
39 | · | · | 2.6% | 2% | COc1ccc(C2(C)NC(=O)N(CC(=O)Nc3ccc4ccccc4c3)C2=O)cc1OC (centres undefined)
40 | -18% | 1 | 3.8% | 9% | C=CCOc1ccc(C(=O)Nc2ccc(OCC)cc2)cc1
41 | -13% | · | ? | ? | COC(=O)c1sc(N2C(=O)C(O)=C(C(=O)c3ccc(C)o3)C2c2cccs2)nc1C (centres undefined)
42 | 2% | 2 | -3.9% | 13% | O=[N+]([O-])c1ccc2c(c1)C(N1CCOCC1)/C(=C/C1(O)CCCCC1)O2 (centres undefined)
43 | 5% | -5 | -1.3% | 1% | COc1ccc(Cn2nnnc2C(c2ccc(C)cc2)N2CCN(C3CCCC3)CC2)cc1 (centres undefined)
44 | -11% | 4 | 3.1% | -10% | COc1ccc(CCC(=O)Nc2ccccc2C(F)(F)F)cc1
45 | 19% | -11 | -1.5% | 1% | O=C(NCc1ccco1)c1cc(-c2cccnc2)nc2ccc(Cl)cc12
46 | 1% | 3 | -9.5% | -14% | CC1C(=O)C(C)C(c2ccc([N+](=O)[O-])cc2)NC1c1ccc([N+](=O)[O-])cc1 (centres undefined)
47 | -15% | 0 | 0.2% | -3% | CC(=O)Cc1nsc(NC(=O)c2ccc(F)cc2)n1
48 | -11% | · | -3.2% | -9% | COc1cc(CN2CCC(n3nccc3NC(=O)c3ccccc3OC)CC2)ccc1F
49 | -4% | -1 | -0.3% | -10% | O=C(Cc1cccs1)N1CCN(c2ccc(F)cc2)CC1
50 | -44% | · | 2.1% | 14% | CC(C)CCNC(=O)c1cc2c(=O)n3ccccc3nc2s1
51 | · | · | -1.7% | 0% | CC1CCN(CCC(=O)Nc2ccc(Br)cc2)CC1
52 | -21% | · | -4.2% | -16% | Oc1ccccc1-c1cc(-c2ccc(Cl)cc2)n[nH]1
53 | -3% | 4 | · | · | CC1CNc2c(cccc2S(=O)(=O)N[C@@H](CCCN=C(N)N)C(=O)N2CC[C@@H](C)C[C@@H]2C(=O)O)C1 (some centres undefined)
54 | · | · | 2.7% | -15% | CCCCC1(C2CCCC2)NC(=O)NC1=O (centres undefined)
55 | ? | · | 0.2% | 0% | CN1C/C(=C/c2ccncc2)C(=O)/C(=C/c2ccncc2)C1
56 | 1% | -21 | -0.7% | -5% | CCc1c(C(=O)c2ccc(Cl)cc2)oc2c(C)c3oc(=O)cc(C)c3cc12
57 | -2% | -2 | 0.2% | 0% | Cc1cccc(N(Cc2cc3cc(C)ccc3[nH]c2=O)C(=O)c2cccs2)c1
58 | -1% | 5 | -2.1% | 11% | CCN(CC)S(=O)(=O)c1ccc(NC(=O)CN(c2ccc(OC)cc2OC)S(C)(=O)=O)cc1
59 | -8% | 0 | 0.1% | -1% | Cc1ccccc1NS(=O)(=O)c1cccc(-c2nnc(-c3ccccc3)o2)c1
60 | -16% | -7 | ? | ? | O=C(Oc1ccc2c(-c3ccccc3)cc(=O)oc2c1)C1CCCCC1

Entries of single compounds, looked up by structure:
CC1CCN(CCC(=O)Nc2ccc(Br)cc2)CC1 is entered as miR-21 FLuc = ·; GLA inh pH 4.5 = ·; Rango complex inh = -1.7%; Rango release inh = 0%
CCc1c(C(=O)c2ccc(Cl)cc2)oc2c(C)c3oc(=O)cc(C)c3cc12 is entered as miR-21 FLuc = 1%; GLA inh pH 4.5 = -21; Rango complex inh = -0.7%; Rango release inh = -5%
CCN(CC)S(=O)(=O)c1ccc(NC(=O)CN(c2ccc(OC)cc2OC)S(C)(=O)=O)cc1 is entered as miR-21 FLuc = -1%; GLA inh pH 4.5 = 5; Rango complex inh = -2.1%; Rango release inh = 11%

Further results.
nr | miR-21 FLuc | GLA inh pH 4.5 | Rango complex inh | Rango release inh | SMILES
61 | 2% | · | 3.0% | -5% | COc1ccc(S(=O)(=O)NNC(=O)Nc2ccc(F)cc2F)c(OC)c1
62 | -5% | -10 | ? | -13% | O=C(CN1C(=O)c2ccccc2S1(=O)=O)Nc1ccc(S(=O)(=O)N2CCCCCC2)cc1
63 | 1% | · | 4.2% | 0% | CC1CCC(NCCNC(=O)c2ccco2)CC1 (centres undefined)
64 | 3% | -2 | -3.1% | -2% | Cc1ccc(C(=O)NCCNc2ccc([N+](=O)[O-])cc2C(F)(F)F)cc1
65 | 25% | 9 | -1.9% | -7% | CCOC(=O)c1ccccc1NC(=O)Cn1c(-c2nonc2N)nc2ccccc21
66 | -5% | 4 | 2.4% | 7% | COC(=O)[C@H](C)NC(=O)Nc1cccc(C)c1
67 | -10% | 6 | -0.4% | -11% | Cc1ccccc1-n1c(=O)cc(N2CCC3(CC2)OCCO3)[nH]c1=O
68 | -4% | 2 | -0.2% | 1% | CCN(CC)S(=O)(=O)c1ccc(C)c(NC(=S)NNC(=O)C2CC2)c1
69 | · | · | -1.1% | -1% | CC(C)(C)[C@H]1COC(=O)CC/C=C\C[C@@H](CC(=O)N[C@H](CO)Cc2ccccc2)C(=O)N1
70 | -1% | -5 | · | · | CCCCC(CC)CNC(=O)/C=C/c1ccc(F)cc1 (centres undefined)

Some of the compounds tested, so the mix of outcomes need not match the whole.
